Source: PubChem BioAssay
TIM10 inh = growth inhibitors of isogenic TIM10 control yeast, primary screen, counter-screen for tim10-1 yeast inhibitor project, luminescence, uHTS. 330,000 compounds, 1.4% hits. inhibition, % at 10 µM. S. cerevisiae TIM10 strain growth, BacTiter-Glo luminescence, 24 h;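 active means inhibition of 40% or more at the single tested concentration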;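 further: wild-type TIM10 isogenic control strain grown at permissive 25 °C; 0% = DMSO yeast wells and 100% = minimal medium wells without yeast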
Mdm2-MdmX inh = inhibitors of human Mdm2-MdmX association, primary screen, cell-based, luminescence, split luciferase, SaOS-2, uHTS; SaOS-2 split-luciferase Mdm2/MdmX complementation; inhibition, % at 8 µM; 330,000 compounds, 3% hits; AID 485346, 2010;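 active means inhibition of at least 50% at 8 µM in the primary screen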
Target sequence (O15151 whole entry, looked up): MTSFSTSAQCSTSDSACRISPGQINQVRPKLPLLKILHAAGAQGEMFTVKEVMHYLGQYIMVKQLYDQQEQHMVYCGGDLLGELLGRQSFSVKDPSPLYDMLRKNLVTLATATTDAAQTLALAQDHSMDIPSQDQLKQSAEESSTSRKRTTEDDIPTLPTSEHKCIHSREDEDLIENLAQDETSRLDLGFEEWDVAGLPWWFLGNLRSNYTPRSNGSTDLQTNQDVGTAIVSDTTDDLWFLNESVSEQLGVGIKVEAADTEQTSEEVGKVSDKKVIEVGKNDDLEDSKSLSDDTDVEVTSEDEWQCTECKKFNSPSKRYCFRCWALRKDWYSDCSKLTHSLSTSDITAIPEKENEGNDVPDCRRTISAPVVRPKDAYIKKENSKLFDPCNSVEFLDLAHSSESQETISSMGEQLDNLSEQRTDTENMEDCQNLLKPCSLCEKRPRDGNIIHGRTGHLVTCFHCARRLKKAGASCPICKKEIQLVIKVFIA
Target sequence (Q00987 whole entry, looked up): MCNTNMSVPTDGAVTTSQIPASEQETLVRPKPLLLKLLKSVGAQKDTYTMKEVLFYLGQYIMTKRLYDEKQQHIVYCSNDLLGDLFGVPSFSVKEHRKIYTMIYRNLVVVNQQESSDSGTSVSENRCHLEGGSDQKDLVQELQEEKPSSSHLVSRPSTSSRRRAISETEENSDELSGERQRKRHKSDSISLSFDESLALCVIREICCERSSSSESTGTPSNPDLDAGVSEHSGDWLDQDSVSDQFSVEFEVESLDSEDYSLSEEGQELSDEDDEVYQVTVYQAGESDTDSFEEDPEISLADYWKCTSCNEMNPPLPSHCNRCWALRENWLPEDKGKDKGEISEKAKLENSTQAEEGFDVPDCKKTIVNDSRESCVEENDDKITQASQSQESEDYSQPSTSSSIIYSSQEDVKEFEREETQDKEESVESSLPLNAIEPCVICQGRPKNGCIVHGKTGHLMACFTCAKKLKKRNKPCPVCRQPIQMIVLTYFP
tim10-1 inh = growth inhibitors of tim10-1 mutant yeast, primary screen, luminescence, uHTS; 330,000 compounds, 2.2% hits; inhibition, % at 20 µM; S. cerevisiae tim10-1 ts strain growth, BacTiter-Glo, 24 h; AID 463190, 2010;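 active means inhibition of at least 40%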;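 further: mutant grown at 25 °C; 0% = DMSO wells with yeast and 100% = wells holding no yeast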
UPR XBP1 act = activators of adaptive XBP1 UPR arm, primary screen, cell-based, CHO-XBP1 luciferase reporter, luminescence, uHTS. 330,000 compounds, 0.33% hits. activation, % at 20 µM. AID 463104, 2010. IRE1-XBP1 UPR activation; percent of tunicamycin response, DMSO as zero;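 active means versus positive control, 20 µM dose yields 30% or more activation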;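 further: 100% = tunicamycin at 10 µg/mL and 0% = DMSO only wells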
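Test system: CHO-XBP1 luciferase reporter cells | Buffer or medium: Serum-containing F12 medium, 10% FBS | Schedule: 6 h compound exposure at 37 °C, 5% CO2 | Detection: Steady-Glo luciferase glow luminescence, 10 min after reagent addition | Read-out basis: Activation, % of tunicamycin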
APJ agonist = agonists of human apelin receptor APJ, primary screen, CHO-K1 cells, PathHunter beta-arrestin, luminescence | activation, % at 20 µM | 0% DMSO wells, 100% apelin | 330,000 compounds, 0.11% hits;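 active means activation more than six SD over the plate average, tested at 20 µM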;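 further: 0% = DMSO alone and 100% = apelin-13 at 10 nM; some results filed as inactive read as strong as hits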
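Assay system: engineered CHO-K1 APJ arrestin reporter cells; Amount: 1000 CHO-K1 reporter cells seeded per well; Dosing: one dose, 20 µM compound, 1% DMSO; Times: compound stimulation 90 min at 25 °C, detection 60 min; Measured by: luminescent beta-gal fragment complementation, chemiluminescent substrate; Read-out: APJ–arrestin association signal; Controls: DMSO vs Apelin-13 10 nM.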
APJ antag = antagonists of human apelin receptor APJ, primary screen, CHO-K1 cells, beta-arrestin complementation, luminescence; inhibition, % at 20 µM; AID 2521, 2010; 330,000 compounds, 0.32% hits; P35414;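 active means inhibition above about 40% at 20 µM, limit read from the data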;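 further: cells challenged with 10 nM apelin-13 agonist together with compound; plate controls were apelin-13 plus DMSO wells for no effect and DMSO wells lacking apelin-13 for full effect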
tim23-1 inh = growth inhibitors of tim23-1 mutant yeast, primary screen, luminescence, uHTS. S. cerevisiae tim23-1 growth, BacTiter-Glo luminescence, 24 h. inhibition, % at 20 µM. 330,000 compounds, 1.3% hits. AID 463212, 2010;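 active means growth inhibition of the mutant yeast at or above 50%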;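 further: temperature-sensitive mutant grown at 25 °C; plate controls were DMSO-treated mutant yeast for no effect and medium wells lacking yeast for full effect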
CHOP UPR activ = activators of apoptotic CHOP UPR arm, primary screen, cell-based, CHO-CHOP luciferase reporter, luminescence, uHTS | UPR activation; percent of tunicamycin response over DMSO baseline | activation, % at 10 µM | 330,000 compounds, 0.34% hits | AID 449763, 2010;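 active means at 10 µM dose, activation of 40% or more, normalized to positive control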;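 further: 100% = tunicamycin at 10 µg/mL and 0% = DMSO alone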
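System: CHO-CHOP luciferase reporter cell line | Buffer or medium: F12 medium containing 10% fetal bovine serum | Doses: One dose, 10 µM in 0.5% DMSO | Times: 6 h compound exposure at 37 °C after overnight seeding | Signal: Luciferase luminescence | Read-out: % activation vs tunicamycin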
* = called active by the depositor. These rows are one share of the data. The share of hits here may be higher or lower than overall.

SMILES	TIM10 inh	Mdm2-MdmX inh	tim10-1 inh	UPR XBP1 act	APJ agonist	APJ antag	tim23-1 inh	CHOP UPR activ
O=C(Nc1nnc(-c2ccc(Cl)cc2)o1)c1ccccc1Br	-4	-13	6	2	-2	6	24	4.9
CC(C)COc1ccc(-c2nnc(-c3ccncc3)o2)cc1	2	-80	20	1	1	-3	13	2.1
COC(=O)C1=NN(c2cccc(C)c2)C2C(=O)N(c3ccccc3OC)C(=O)C12 (stereo not given)	8	6	1	-1	-3	7	-2	-0.7
CN(c1ccccc1)S(=O)(=O)c1ccc(C(=O)OCC(=O)NC(N)=O)cc1	2	-13	-4	0	0	10	-7	1.4
CC(=O)c1ccc(NC(=O)CSc2ccc(-c3ccco3)nn2)cc1	9	22	12	-1	6	-62	18	1.0
O=C(Nc1ccc2oc(=O)ccc2c1)c1ccc(-c2cccc(Cl)c2)o1	-20	-18	-3	4	1	8	1	0.7
Cc1c(C(=O)Oc2cccc3cccnc23)cccc1[N+](=O)[O-]	1	10	13	7	-2	12	28	3.9
Cc1sc(NC(=O)C2CC(Cl)=CCC2C(=O)O)c(C#N)c1C (stereo not given)	3	5	15	-2	-4	4	13	-2.4
COc1ccc(-c2cnnn2-c2ccc(NC(=O)c3ccco3)cc2)cc1OC	2	24	24	2	-2	26	8	-2.6
O=C(CSc1nccc(=O)[nH]1)N1c2ccccc2CCc2ccccc21	5	5	-1	-1	2	18	9	-1.5

Only CHOP UPR activ and APJ agonist (four entries from above):
molecule	CHOP UPR activ	APJ agonist
CC(C)COc1ccc(-c2nnc(-c3ccncc3)o2)cc1	2.1	1
Cc1c(C(=O)Oc2cccc3cccnc23)cccc1[N+](=O)[O-]	3.9	-2
COC(=O)C1=NN(c2cccc(C)c2)C2C(=O)N(c3ccccc3OC)C(=O)C12 (stereo not given)	-0.7	-3
O=C(CSc1nccc(=O)[nH]1)N1c2ccccc2CCc2ccccc21	-1.5	2

The listing continues.
SMILES	TIM10 inh	Mdm2-MdmX inh	tim10-1 inh	UPR XBP1 act	APJ agonist	APJ antag	tim23-1 inh	CHOP UPR activ
CC(=O)Nc1nonc1-c1nc2ccccc2n1N(C(C)=O)C(C)=O	-8	0	5	1	-4	-12	3	-1.3
CCC(=O)N1C(C(=O)O)CSC1c1ccc(OC)cc1 (stereo not given)	1	-23	1	0	-4	12	10	-1.4
O=S(=O)(Cc1ccccc1Cl)c1ncn[nH]1	5	-18	11	-3	-2	11	-8	-2.1
COc1ccccc1-n1c(C)cc(SC)c(C(C)=O)c1=S	-9	-4	20	1	0	-8	22	-5.4
COC(CNC(=O)c1ccc2c3c(onc13)-c1ccccc1C2=O)OC	9	-84	39	7	8	-6	35	17
CC(C)c1cc(C(=O)N/N=C/c2ccoc2)c(O)c(C(C)C)c1	16	20	18	-5	5	7	27	-0.5
COc1ccccc1-c1cc(C(=O)O)c2c(=O)n(C)c(=O)n(Cc3ccccc3)c2n1	1	-20	-2	-1	0	-6	3	-0.7
O=c1c2c(nc3c(-c4cccc5ccccc45)c[nH]n13)CCC2	-9	17	14	-2	-3	-7	-4	-1.8
O=C1C=CC(=O)N1c1ccc(N2CCCCC2)cc1	73*	40	93*	-4	-5	5	26	45*
COc1cccc(NC(=O)c2ccc(NS(=O)(=O)c3cccs3)cc2)c1	3	5	12	-4	-3	-26	17	-1.2

Arranged by the number under APJ antag (descending): some entries from above
| Structure | Mdm2-MdmX inh | UPR XBP1 act | APJ antag |
| --- | --- | --- | --- |
| O=C(Nc1nnc(-c2ccc(Cl)cc2)o1)c1ccccc1Br | -13 | 2 | 6 |
| O=C1C=CC(=O)N1c1ccc(N2CCCCC2)cc1 | 40 | -4 | 5 |
| COC(CNC(=O)c1ccc2c3c(onc13)-c1ccccc1C2=O)OC | -84 | 7 | -6 |

Following part:
SMILES	TIM10 inh	Mdm2-MdmX inh	tim10-1 inh	UPR XBP1 act	APJ agonist	APJ antag	tim23-1 inh	CHOP UPR activ
CN(C)CCN(C(=O)CN1C(=O)c2ccccc2C1=O)c1nc2cc3c(cc2s1)OCO3	10	5	4	-3	1	-18	5	-0.6
CC(Cc1ccccc1)C(=O)N1CCN(C)CC1 (stereo not given)	-9	7	-7	0	11	3	3	0.6
O=C(/C=C/c1cn(-c2ccccc2)nc1-c1cccs1)NCCN1CCOCC1	19	-9	7	1	-4	-2	16	0.5
O=C(NCCCN1CCOCC1)c1cnn2c(-c3ccccc3)cc(-c3ccccc3)nc12	19	38	21	1	-8	28	31	0.1
Cn1c(=O)c2c(nc(-n3ccnc3)n2Cc2ccccc2)n(C)c1=O	-17	5	4	-2	-7	-11	-3	0.9
CC(=O)Nc1cccc(C(=O)N/N=C/c2ccc(C)o2)c1	6	-19	6	-2	-3	2	8	-0.1
CCOC(=O)c1c(-c2ccccc2)nnn1-c1nc(OCC)nc(N2CCCCC2)n1	39	16	36	-1	-5	16	34	3.3
Cc1cc(C(=O)OCC(=O)c2cccs2)c2ccccc2n1	7	11	14	4	-5	7	15	0.3
Fc1ccc(Oc2ccc3nnc(C(F)(F)F)n3n2)cc1	-6	-20	12	0	-3	17	1	0.7
CCN1CCc2c(sc(NC(=S)NC(=O)c3ccccc3)c2C#N)C1	-8	-25	11	6	-6	16	19	0.9
COc1ccc(N=CC2=C(O)CC(C)(C)CC2=O)cc1OC	-55	11	-31	3	0	3	-90	2.8
COc1cccc(NCc2cc(=O)oc3cc(C)c(C(C)C)cc23)c1	13	15	36	18	-3	14	30	-0.8
Cc1c(NC(=O)c2ccc(N(C)S(C)(=O)=O)cc2)c(=O)n(-c2ccccc2)n1C	7	-15	0	-1	-1	6	7	0.6
C/C(CC(=O)NC1CCCCC1)=N\NC(=O)COc1ccc(C)cc1Br	-19	18	7	-2	-3	3	11	-2.0
CC1(C)Cc2ccccc2C(C(=O)c2ccccc2)=N1	13	0	23	-6	0	15	14	-1.4
CC(NC(=O)COC(=O)CSc1ccc(F)cc1)c1ccc(F)cc1 (stereo not given)	5	-5	-10	2	1	21	-5	-1.4
COc1ccc(N=Cc2nc(-c3ccco3)oc2O)cc1	-12	-2	7	1	2	12	20	3.0
CC(=O)Nc1cc(C)c2nc(NC(C)=O)sc2c1	-1	9	-1	0	1	-11	20	2.4
N#CC(c1ccccc1)(c1ncc(C(F)(F)F)cc1Cl)N1CCOCC1 (stereo not given)	-16	11	25	1	0	12	14	-1.0
CCOC(=O)c1cc2ccc3ccccc3c2oc1=O	30	-6	29	-4	-4	-21	20	0.9

Entries of single compounds, looked up by structure. Values in the order: TIM10 inh	Mdm2-MdmX inh	tim10-1 inh	UPR XBP1 act	APJ agonist	APJ antag	tim23-1 inh	CHOP UPR activ
CCOC(=O)c1cc2ccc3ccccc3c2oc1=O in the list: 30	-6	29	-4	-4	-21	20	0.9
C/C(CC(=O)NC1CCCCC1)=N\NC(=O)COc1ccc(C)cc1Br in the list: -19	18	7	-2	-3	3	11	-2.0

(more compounds)
SMILES	TIM10 inh	Mdm2-MdmX inh	tim10-1 inh	UPR XBP1 act	APJ agonist	APJ antag	tim23-1 inh	CHOP UPR activ
N/C(=N\OC(=O)c1ccco1)c1cccc(Br)c1	61*	-48	56*	0	4	-70	64*	0.5
CCC1Nc2ncnc(N3CCCCC3)c2N(Cc2ccc(OC)cc2)C1=O (stereo not given)	7	-6	17	0	-4	32	36	1.0
Cc1cccc(C(=O)NN/C=C/C(=O)c2ccccc2)c1	10	12	16	2	-2	26	31	1.8
O=C(O)CCCNC(=O)c1nn(Cc2ccccc2)c(=O)c2ccccc12	-9	-16	-13	6	-4	1	13	2.0
COc1ccc(CN(C)C2CCCCC2)c(C)c1C	-11	0	-21	0	-5	5	-3	-1.8
N/C(=N\O)c1ccccc1-n1cccc1	-5	-3	2	1	2	-7	10	-0.9
CCCn1nnc(NC(=O)c2ccc(-c3cc(Cl)ccc3Cl)o2)n1	18	33	18	4	-3	-5	7	2.0
CCOC(=O)N1CCN(C(=O)c2ccc3c(c2)NC(=O)/C(=C/c2ccccc2)S3)CC1	6	9	23	-5	-3	-2	25	-0.9
C/C(=N\NC(=O)c1ccc(NS(=O)(=O)c2cccs2)cc1)c1ccc2ccccc2c1	6	-7	9	0	2	-8	11	0.9
CCOC(=O)C1=NN(c2ccccc2)C2C(=O)N(c3ccccc3OC)C(=O)C12 (stereo not given)	-11	2	9	-2	2	5	11	-2.1
CCC(C)N1CCCC1C(=O)Nc1c(C)cc(C)cc1C (stereo not given)	-6	29	13	-2	-5	31	-2	0.6
Cn1c(=O)c2c(C(=O)O)cc(-c3ccccc3)nc2n(Cc2ccccc2)c1=O	4	24	-25	-3	-1	4	1	-0.3
CC(C)c1ccc(-c2c(NCCc3ccccc3)c(=O)c2=O)cc1	-23	17	3	-2	2	-13	-11	-0.1
Cc1ccc(OCCn2c(C3CC(=O)N(Cc4ccccc4)C3)nc3ccccc32)cc1 (stereo not given)	8	16	3	3	0	9	11	0.1
CCC(C)NC(=O)c1nn(Cc2ccccc2)c(=O)c2ccccc12 (stereo not given)	13	-3	1	-3	-4	10	17	0.1
Cc1cc(-c2csc(NC(=O)c3ccc(=O)[nH]c3)n2)c(C)n1Cc1ccco1	-4	6	1	-1	-3	-15	-14	-0.5
O=C(Nc1ccc2c(c1)Cc1ccccc1-2)c1ccco1	26	-174	10	7	-1	-15	34	2.1
OC(CN1CCc2ccccc2C1)c1ccccc1 (stereo not given)	3	6	8	3	-4	-17	-2	-1.5
COc1ccc(-n2c(C)cc(SC)c(C(C)=O)c2=S)cc1	10	8	7	-3	3	5	12	-1.9
